D2 PAM: potentiates the human D2 dopamine receptor allosterically. DiscoveRx D2 beta-arrestin cells, luminescence, 90 min; 100% = 57 uM dopamine signal. potentiation, % (concentration not given with the values). AID 624464. 360,000 compounds, 0.23% hits. P14416; active = potentiation of 50% or more; inconclusive = 30% to 50%; inactive = 30% or less;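 note: tested on top of an EC20 dose of dopamine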
Target sequence (P14416 whole entry, looked up): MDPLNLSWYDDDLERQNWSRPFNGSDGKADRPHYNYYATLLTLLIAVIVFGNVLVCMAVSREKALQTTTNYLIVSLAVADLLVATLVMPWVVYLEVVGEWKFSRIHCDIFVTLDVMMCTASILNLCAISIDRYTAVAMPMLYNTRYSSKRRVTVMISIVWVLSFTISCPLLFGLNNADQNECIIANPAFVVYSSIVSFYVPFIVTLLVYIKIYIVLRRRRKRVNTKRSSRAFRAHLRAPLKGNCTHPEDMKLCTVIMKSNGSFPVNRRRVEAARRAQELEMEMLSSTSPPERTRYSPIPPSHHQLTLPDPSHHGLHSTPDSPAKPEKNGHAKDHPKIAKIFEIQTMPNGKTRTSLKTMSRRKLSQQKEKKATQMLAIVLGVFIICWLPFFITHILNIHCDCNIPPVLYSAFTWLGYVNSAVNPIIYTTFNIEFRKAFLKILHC
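PathHunter beta-arrestin assay in DiscoveRx D2 cells. Compounds were added with an EC20 of dopamine (50 nM final) for 90 min at 37 deg C. Luminescence was read 1 h after detection reagent, with 57 uM dopamine as the EC100 control.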
TRPML1 inh: human mucolipin-1 channel inhibition; TRPML1-inducible cells, Ca2+ dye fluorescence, FDSS; stronger effect = lower value; inhibition of EC80 agonist-evoked calcium signal; activity change, negative = inhibition, % (test concentration not listed); 390,000 compounds, 0.02% hits; in the data active means activity change below about -50%; inconclusive means about -30% to -50%; inactive means above about -30%;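 note: stimulus is agonist 54-4 at its EC80 concentration; % is set by controls: 0 for no effect and ±100 for the full control effect; compound concentration not given in the record; the text of the record puts the active cut at -80%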
Target sequence (Q9GZU1 whole entry, looked up): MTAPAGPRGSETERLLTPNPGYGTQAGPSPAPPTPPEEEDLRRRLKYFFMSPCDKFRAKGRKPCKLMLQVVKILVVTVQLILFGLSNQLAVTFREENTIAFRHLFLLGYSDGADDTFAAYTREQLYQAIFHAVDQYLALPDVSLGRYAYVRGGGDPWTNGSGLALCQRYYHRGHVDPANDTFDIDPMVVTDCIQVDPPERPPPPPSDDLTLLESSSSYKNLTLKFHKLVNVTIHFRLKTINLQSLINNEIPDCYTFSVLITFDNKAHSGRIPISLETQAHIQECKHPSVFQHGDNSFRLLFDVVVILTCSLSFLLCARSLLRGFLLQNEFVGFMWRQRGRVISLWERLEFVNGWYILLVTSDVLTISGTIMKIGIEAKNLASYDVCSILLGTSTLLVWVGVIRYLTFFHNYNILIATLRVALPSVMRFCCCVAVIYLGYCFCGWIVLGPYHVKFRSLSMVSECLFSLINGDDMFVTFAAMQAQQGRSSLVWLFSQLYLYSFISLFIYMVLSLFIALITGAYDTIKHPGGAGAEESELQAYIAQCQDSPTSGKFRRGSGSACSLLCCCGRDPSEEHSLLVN
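TRPML1-DL cells, Tet-induced overnight (~16 h, 37 °C) at 1,500 cells/well, were loaded with Ca8 no-wash dye plus quencher for 45-90 min at room temperature. Compounds were pinned during FDSS kinetic reading; agonist 54-4 at EC80 (4 uM final) then added.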
PINK1 expr mod: changes PINK1 expression; PINK1 immunofluorescence, high-content cytometry, 24 h; Potency, µM (top dose mostly 76.6 µM), inactives show at the top dose activation (PINK1 increase), usual class: activators; 410,000 compounds, 0.2% hits; AID 624263; active = well fitted activation curve with a large enough effect; inconclusive = small, poorly fitted or top-dose-only effect; inactive = flat fitted curve, though single readings scatter; cell line not stated here;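 note: potency is the fitted concentration of half-maximal effect; % of control where 0% means no effect; nearly all actives have a fitted effect of over 65% in size; a mitochondrial uncoupler was the plate control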
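PINK1 protein level read as immunofluorescence by microplate cytometer in a fixed, stained stable cell line after 24 h exposure to five compound concentrations, with CCCP as control.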
TRPML1 ag: agonists of human TRPML1 channel. TRPML1-expressing cells, Ca2+ dye fluorescence, FDSS; host cell line not named in the record; reference of the full effect not given here. 410,000 compounds, 0.12% hits. AID 624414. activation, % (no concentration beside the values); in the data active = activation above about 50%; inconclusive = about 30% to 50%; inactive = below about 30%; note: 0% is about no effect; the text of the record puts the active cut at 80%
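Kinetic FDSS Ca2+ read in Tet-induced TRPML1-DL cells (ABD Ca8 dye plus quencher, 45-90 min RT loading): baseline, then compound, then 110 s agonist window; EC80 agonist 54-4 at 4uM final added afterwards for a 110 s antagonist window.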
Six1-Eya2 inh: blocks human Six1 binding to Eya2; AID 651725; AlphaScreen GST-Six1/His-Eya2 binding, biochemical; stronger effect = lower value; control for the full effect not named in the record; activity change, % (concentration not given with the values); 360,000 compounds, 0.56% hits; in the data active = activity change below about -65%; inconclusive = about -30% to -65%; inactive = above about -30%; note: % is set by controls: 0 for no effect and ±100 for the full control effect
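AlphaScreen with GST-Six1 and His-Eya2 (5X mix: 250 nM and 500 nM), glutathione donor and nickel acceptor beads; buffer 50 mM Tris pH 8.0, 300 mM NaCl, 1 mM TCEP; 1 h at 37 C in the dark.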
D2 agonist: agonists of human D2 dopamine receptor (beta-arrestin) | P14416 | DiscoveRx PathHunter D2 beta-arrestin, luminescence, 90 min; 100% = 57 uM dopamine signal | activation, % (test concentration not listed) | 360,000 compounds, 0.084% hits | AID 624465; in the data active = activation above about 40%; inconclusive = about 15% to 40%; inactive = below about 15%; note: compound concentration not given in the record; the text of the record calls up to 30% inactive
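Agonist mode: compounds alone added to overnight-plated D2 PathHunter cells for 90 min at 37 C, with 57 uM final dopamine (EC100) defining full response. Beta-arrestin recruitment detected by chemiluminescent reagent, read after 1 h at ambient temperature.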
* hit, by the source's call; ? = inconclusive; / = no result given; [ ] = another dose, or the depositor's remark. Outcome played no part in choosing rows; overall some 1% were active at least once.

SMILES	D2 PAM	TRPML1 inh	PINK1 expr mod	TRPML1 ag	Six1-Eya2 inh	D2 agonist
CCOC(=O)N1CCN(CC(=O)Nc2c(C(=O)OC)[nH]c3cccc(Cl)c23)CC1	3.6	25.0	-1.3%[38.3 µM]	0.3	2.7	2.0
Cc1cc(C)cc(N(CC(=O)NC2CCCC2)C(=O)CCC(=O)Nc2cc(C)ccn2)c1	0.6	2.9	1.3%	0.4	25.3	2.2
Cc1ccc(Nc2nnc(SC(C)C(=O)NC3CC3)s2)cc1 (stereo not given)	11.5	-23.5	-1.2%	0.7	0.6	1.8
Oc1ccc(N2CCN(c3nnnn3-c3ccccc3)CC2)cc1	-3.6	-3.7	-0.7%	0.7	-13.4	6.8
COC(=O)c1ccc(NC(=O)CC2C(=O)N(c3cccc(OC)c3)C(=O)N2Cc2cccs2)cc1 (stereo not given)	/	57.8	0.8%	1.1	/	/
O=C(CSc1nnc(-c2ccncc2)o1)N1CCc2ccccc2C1	-3.7	-14.5	1.0%	-0.3	11.8	-1.1
N=C1C2=C3Sc4ccccc4N3CCCC2=NN1c1cccc(S(=O)(=O)O)c1	-1.9	0.6	2.2%	-0.1	?	-4.0
COc1ccc(N(Cc2cc3ccc(C)cc3[nH]c2=O)S(=O)(=O)c2ccccc2)cc1	-3.6	11.7	3.3%	0.6	-4.5	0.6
NC(=O)CC(NC(=O)Cc1ccc(Br)cc1)c1ccc(N2CCc3ccccc3C2)c([N+](=O)[O-])c1 (stereo not given)	-21.5	33.8	-0.6%	-0.1	-8.0	-2.8
CCc1ccccc1NS(=O)(=O)c1ccc2[nH]cc(C(=O)NCc3ccco3)c(=O)c2c1	3.8	-2.8	2.7%	-0.7	0.0	-3.8
Cc1nc(Cc2nnc(SCc3nc(N)nc(Nc4ccccc4C)n3)o2)cs1	-13.1	2.0	-1.5%	-0.7	-2.4	-3.6
COc1ccc(NC(=S)Nc2cccc(C(C)=O)c2)cc1OC	-43.0	2.8	1.8%	0.1	5.6	-2.2
COC(=O)C(C)n1cnc2c(nnn2-c2ccc(C)cc2)c1=O (stereo not given)	-4.2	3.2	2.4%	0.5	0.0	-6.4
CC1CCCN(Cc2ccc(OCc3ccccc3)cc2)C1 (stereo not given)	-34.6	-6.0	4.0%	-0.2	-11.2	0.1
COc1cc(NC(=O)Cn2c(SCc3ccc(F)cc3)nc3cccnc32)cc(OC)c1	/	-19.6	3.8%	-0.3	/	/
O=C(Nc1ccc(F)cc1)C(=O)C1C(=O)Nc2ccccc21 (stereo not given)	-0.1	-0.9	-1.0%	0.0	2.5	-1.4
CC(=O)NN1C(=O)c2ccccc2NC1c1ccccc1O (stereo not given)	-6.9	-7.9	0.2%	-1.1	0.0	-1.9
Cc1ccc(OCCCCn2cnc3ccccc32)c(C)c1	-13.9	0.9	/	0.0	-1.9	0.9
CN(C)S(=O)(=O)c1cccc(CSCc2cccc(S(=O)(=O)N(C)C)c2)c1	-10.4	12.6	-0.5%	-1.1	-1.3	3.9
COc1ccc(-c2nc3scc(CCNS(=O)(=O)c4ccccc4F)n3n2)cc1	/	-12.5	0.5%	4.3	/	/

Ordered by value in D2 agonist (ascending): three from the list above
SMILES | D2 agonist
COc1ccc(NC(=S)Nc2cccc(C(C)=O)c2)cc1OC | -2.2
CC(=O)NN1C(=O)c2ccccc2NC1c1ccccc1O (stereo not given) | -1.9
O=C(Nc1ccc(F)cc1)C(=O)C1C(=O)Nc2ccccc21 (stereo not given) | -1.4

Carrying on.
SMILES	D2 PAM	TRPML1 inh	PINK1 expr mod	TRPML1 ag	Six1-Eya2 inh	D2 agonist
O=C(O)C1C2C=CC(O2)C1C(=O)NC1CCCc2ccccc21 (stereo not given)	-14.6	5.2	-1.2%	-0.8	-1.9	-1.0
Cc1cccc(C(=O)Nc2ccc(N3CCN(S(C)(=O)=O)CC3)cc2)c1	-5.6	-16.4	1.8%	0.7	-4.5	1.8
Cc1ccc(NC(=O)C(=O)NNC(=O)c2cccs2)cc1	-4.3	20.5	-0.3%	0.7	4.6	-3.6
Cc1cccc(N2CCN(C(=O)CCCCCn3c(=S)[nH]c4ccc(N5CCOCC5)cc4c3=O)CC2)c1C	-2.5	6.0	0.1%	1.2	18.0	1.1
CS(=O)(=O)N1CC(C(=O)O)Oc2ccc(CC(=O)O)cc21 (stereo not given)	2.5	9.2	4.0%	3.7	2.8	-5.5
Nc1nc(-c2ccccc2)cn1N	-6.3	-21.0	-0.1%	0.1	-12.6	-1.4
CCOc1c(Br)cc(C(N)=O)cc1OCc1ccccc1	1.6	1.0	6.0%	-0.1	-1.1	0.1
N#CCC(=O)N/N=C\c1cc(Br)ccc1OC/C=C/c1ccccc1	-6.7	21.8	13.4%	-0.3	-5.8	1.6
C/C=C\C=C/C(=O)Nc1cccc(C2=NOC3(C2)C[C@@H](C(N)=O)N(C(=O)[C@H]2CCC(=O)N2)C3)c1 (stereo not given in full)	-10.0	13.4	0.3%	-0.4	-4.2	-2.1
C[C@H](CO)N1C[C@H](C)[C@@H](CN(C)S(=O)(=O)c2cccc(C#N)c2)OCc2cn(nn2)CCCC1=O	2.9	1.1	0.6%	0.0	2.2	-7.0
CSC1=NN(c2ccccc2)CN(c2ccccc2)N1C	-3.8	-0.5	4.6%	0.9	-25.1	0.0
CCCc1nnc(NC(=O)CCC(=O)N2CCN(CCOc3ccc(C)cc3)CC2)s1	3.1	3.6	-1.3%	-0.9	-1.5	0.1
COc1ccc2c(c1)c(C(C)=O)c(C)n2-c1ccc(C(C)=O)cc1	-2.9	37.9	-0.1%	1.2	10.2	-5.9
COc1ccccc1Oc1nnnn1-c1ccc(C(N)=O)cc1	-12.9	-12.4	0.3%[38.3 µM]	-0.3	-1.4	-3.1
Cn1ccnc1C1CCCCN1Cc1nc(Cc2ccccc2F)no1 (stereo not given)	1.0	-5.2	3.8%	-0.5	-0.1	-0.7
Cc1cc(C)cc(Nc2nc(-c3ccc(S(=O)(=O)N4CCCC4)cc3)cs2)c1	-4.9	-0.9	8.8%	0.7	-19.7	2.3
O=C(Nc1cccnc1)c1cccnc1	-12.0	-14.9	1.1%[38.3 µM]	1.7	1.4	-2.5
CCCCCNCc1ccc(Cl)cc1	-7.5	-12.7	0.1%	0.3	8.2	2.9
Cc1ccc(NC(=S)N(CCCN(C)C)Cc2cc3cc4c(cc3[nH]c2=O)OCO4)cc1	-4.5	-13.1	6.6%	0.7	-1.9	-0.4
Cc1cc(C)nc(SCC(=O)N/N=C/C=C/c2ccccc2)n1	-1.7	-15.1	0.1%	1.3	-1.1	-5.0
Cc1cccc(NC(=O)CN(C)C(=O)C2CCCC2)c1C	-2.9	-0.9	-0.5%	-0.2	0.0	-2.1
Cc1ccccc1NS(=O)(=O)c1ccc(F)cc1	-12.3	-11.4	3.1%[38.3 µM]	0.0	3.6	-1.9
CC1=C(C(=O)Nc2cccnc2)C(c2ccc3c(c2)OCO3)C2=C(CCCC2=O)N1 (stereo not given)	-8.3	8.8	0.9%	0.1	4.8	1.2
Cc1ccc(S(=O)(=O)N(Cc2c(F)cccc2Cl)C(=O)N2CCN(C)CC2)cc1	-2.6	-2.5	-1.3%	0.8	8.5	-3.8
O=S(=O)(Nc1ccccc1Br)c1cccc2cccnc12	-8.1	5.9	1.0%	-1.0	-10.9	-2.9
COCCn1nnnc1C(C(C)C)N1CCCC(C)C1 (stereo not given)	-8.4	16.3	-0.1%	1.3	2.7	2.4
COc1cc(Cl)ccc1OC1(C)CCN(Cc2c(F)cccc2F)C1 (stereo not given)	-15.0	/	5.7%	-1.3	-2.4	-4.9
Clc1cccc(OCCN2CCOCC2)c1	-29.3	17.4	-1.8%	0.0	8.7	1.2
CCOC(=O)N1CCN(C(=O)CCCn2c(=S)[nH]c3ccsc3c2=O)CC1	3.5	17.6	-1.3%	1.8	1.5	0.9
COc1ccc(S(=O)(=O)N(CC(=O)Nc2cccnc2)c2ccc(C)cc2)cc1OC	/	2.8	-0.6%	-1.5	/	/
CCN(CC)CC(=O)NCc1cc(-c2ccc(OC)cc2)no1	-26.5	-7.4	-1.9%	1.2	4.1	-4.2
CC(C)NC(=O)N(C)C[C@@H]1Oc2c(NC(=O)Nc3ccccc3)cccc2C(=O)N([C@H](C)CO)C[C@H]1C	/	-6.3	1.1%	-0.4	-0.1	0.0
CC[C@]12C(=O)N(C)C[C@H]([C@@H]3C(=O)N(C)C(=O)[C@@H]31)N2C(=O)c1ccccc1	-8.1	14.0	-0.8%	0.5	12.7	-3.5
CCOc1ccc(S(=O)(=O)N2CCOCC2)cc1NC(=O)CSCc1ccc(C)cc1	-1.2	-5.2	6.4%	-1.7	-2.1	-2.4
O=C(NCC1(N2CCCCC2)CCCCC1)C1CC(=O)N(c2ccc3c(c2)OCCO3)C1 (stereo not given)	-13.5	0.1	1.5%	-1.1	5.3	-1.9
COc1ccc(S(=O)(=O)Nc2cc(-c3cn4ccc(C)cc4n3)ccc2C)cc1OC	/	-3.2	0.2%	0.4	/	/
COC(=O)c1cc(C(=O)OC)cc(N2C(=O)CC(NNC(=O)c3ccc(C)cc3)C2=O)c1 (stereo not given)	-2.5	3.6	4.2%	-0.2	-5.3	2.5
O=C1CSC(c2cccnc2)N1CCc1ccccn1 (stereo not given)	-10.3	15.3	2.2%	-0.6	1.8	-5.3
COc1ccc(NC(=O)CN2C(=O)C(c3ccccc3)=NC23CCCCCC3)cc1	-8.7	2.0	1.6%	2.3	-6.5	0.5
CC(C)(C)C(=O)N1CCn2c1nc1ccccc12	-4.1	14.2	-0.5%	0.7	5.2	-1.6
CC(C)C1=NN2C(=N)CC(=O)N=C2S1	-8.2	-13.6	-1.8%[38.3 µM]	-0.2	-1.4	0.6
CC(NC(=O)CCc1nnc(C2(c3ccc(Cl)cc3)CCC2)o1)C1CC1 (stereo not given)	-7.5	-3.4	-0.4%	-0.6	4.5	-1.5
O=C(NCCNC(=O)Oc1cccc2ccccc12)Oc1cccc2ccccc12	?	-0.4	8.2%	0.4	-3.6	8.4
